Sa RN4220 lethal: S. aureus RN4220 growth inhibition; OD600, 16 h; inhibition, % (no concentration beside the values); hit rate 0.33% among 330,000;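 active = z-score of -3 or lower and OD600 up to 0.18 on both plates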;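 also: plate controls were untreated cells for no effect and reference antibiotic for full effect; stock transfer was 100 nL into about 80 µL; one replicate is shown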
BJeLR viability: BJeLR cell viability loss; inhibition, % (concentration not given with the values); hit rate 0.17% among 300,000; BJeLR (HRASV12) viability, CellTiter-Glo ATP luminescence, 48 h; reference of the scale not given here;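 active = replicate mean above 50%; inconclusive = above 50% but judged a plate artefact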;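 also: 50 nL library stock added to about 25 µL; numbers are from one replicate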
Bead autofluor: counter-screen for toxin protease inhibitors: compound fluorescence; compound autofluorescence counterscreen, microsphere flow cytometry; active compounds read high; fluorescence intensity (concentration not given with the values); hit rate 3.1% among 360,000; AID 624483;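 active = at least 3 SD above the mean of all compounds, about 16000 in these data; inconclusive = too few beads counted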;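 also: 100 nL of 1 mM stock went into each well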
PrP 5UTR inh: suppresses PrP 5' UTR mRNA reporter expression; hit rate 0.35% among 340,000; AID 488862; inhibition, % (concentration not given with the values); cell-based PrP 5' UTR mRNA reporter, plate reader;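 active = every replicate at 50% or more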;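 also: 0 = median of the neutral control wells; tested in H4 reporter cells; numbers are from one replicate; inactives centre near -14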
Mtb hypoxia inh: Mtb hypoxia fluorescent reporter inhibition. fluorescence inhibition, % (concentration not given with the values). M. tuberculosis hypoxia-regulated fluorescent reporter, fluorescence. hit rate 0.1% among 300,000. AID 1159583;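 active = 35 to 45% if threefold the growth effect, above 45% if 1.5-fold the growth effect; inactive = the rest, general growth blockers included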;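 also: wells of about 50 µL received 100 nL stock; 0% = vehicle wells and 100% = reference inhibitor wells; whole bacteria with a GFP reporter of the hypoxia response; strong numbers were not always called active; many hits fall short of the cut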
Sa ugtP lethal: growth inhibition of S. aureus ugtP deletion strain. growth inhibition, % (concentration not given with the values). S. aureus RN4220 ugtP deletion, OD600 growth, 16 h; some inactives read as strong as hits. hit rate 0.54% among 330,000;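 active = z-score under -3 and OD600 up to 0.15 on both plates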;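 also: plate controls were untreated wells for no effect and antibiotic for full effect; wells of about 80 µL received 100 nL stock; the first replicate is given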
Mtb hypoxia inh growth: also measured in Mtb hypoxia inh; calls as there; growth inhibition, %; measured here: M. tuberculosis growth (absorbance);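 0% = vehicle and 100% = reference antibiotic; read after six days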
An asterisk follows results filed as active; ? = inconclusive; . = not tested or not shown. An unsorted share of the library, and some 4% of all compounds hit somewhere here.

SMILES | Sa RN4220 lethal | BJeLR viability | Bead autofluor | PrP 5UTR inh | Mtb hypoxia inh | Mtb hypoxia inh growth | Sa ugtP lethal
C/C(=N/NC(N)=S)c1ccc(Br)s1 | . | 5 | 4930 | -5 | . | . | .
COc1cc(C=NNC(=O)c2ccncc2)ccc1OC(=O)c1ccco1 | 4.7 | . | . | . | . | . | 5
COC(=O)C(NC(C)=O)(Nc1ccc(Br)cn1)C(F)(F)F (stereo not drawn) | 2.2 | -5 | 2737 | -9 | 5 | 4 | -6
Nc1nc(NC(=O)c2cccc(S(=O)(=O)N3CCCCCC3)c2)nc(-c2ccccc2)n1 | 14 | -3 | 2329 | -29 | 1 | 5 | -12
COc1ccc(CNC(=O)C(=O)c2cn(CC(=O)N3CCOCC3)c3ccccc23)cc1 | 0.4 | 2 | 6259 | -1 | -4 | -2 | -1
COc1ccccc1NS(=O)(=O)c1cccc(C(=O)N2CCN(Cc3ccc4c(c3)OCO4)CC2)c1 | 0.1 | 4 | ? | -12 | -13 | 0 | -1
Cc1ccc(C(=O)c2ccccc2C(=O)OCC(=O)N2CC(C)CC(C)C2)cc1 (stereo not drawn) | -2.7 | . | . | . | 7 | 7 | -4
Cc1ccc(-n2c(O)c(C=NN3CCCCC3c3cccnc3)c(=O)[nH]c2=S)cc1 (stereo not drawn) | 5.0 | . | . | . | 10 | 1 | -6
O=C(NCCO)c1ccc2c3n(nc2c1)-c1ccccc1CO3 | 4.0 | 7 | 3630 | -46 | 6 | 4 | 6
COc1ccc(NC(=O)COC(=O)CC23CC4CC(CC(C4)C2)C3)c([N+](=O)[O-])c1 | -1.3 | -3 | 2036 | -7 | 6 | 13 | -8
N#CC1=C(N)NC(SCC(=O)Nc2ccccc2)=C(C#N)C12CCCCC2 | 0.0 | 9 | 4591 | -10 | . | . | 16
CC12CCC(=O)C=C1CCC1C3CC(O)C(O)(C(=O)CO)C3(C)CC(O)C12F (stereo not drawn) | 3.2 | . | 3904 | -12 | 11 | 12 | 2
CC1CN(C(=O)COc2ccc3ccccc3c2)CC(C)O1 (stereo not drawn) | 1.7 | . | 3334 | -4 | 11 | 11 | 0
O=C(CSc1n[nH]c(=O)[nH]c1=O)N/N=C/C=C/c1ccccc1 | . | 6 | 4420 | -24 | . | . | .
Cc1ccc(C(=O)COC(=O)c2cccc(NC(=O)c3ccc([N+](=O)[O-])cc3[N+](=O)[O-])c2)cc1 | -3.3 | 0 | ? | 19 | 41* | 23* | -14
Cc1cccc(-n2ccnc2SCC(=O)Nc2cc(C)on2)c1 | -2.2 | 14 | 2814 | -16 | . | . | 0
COc1ccccc1/C=C/C(=O)c1cc(Br)ccc1OC(=O)c1ccco1 | -2.3 | 17 | 4220 | -9 | . | . | 37
COc1ccc(NC(=O)CN(C)CC(=O)NCC2CCCCC2)cc1 | 2.4 | . | 5421 | -8 | 9 | 0 | 5
COc1cccc(OC)c1OCCCCCCN1CCN(C)CC1 | 4.7 | 1 | 3116 | -6 | 9 | -5 | 2
Cc1cc(OCC(=O)N2CCC(C(=O)O)CC2)c2c(C)c(C)c(=O)oc2c1 | 1.6 | 2 | 5685 | -17 | . | . | 6
Cc1[nH]n(-c2ccccc2)c(=O)c1N=Nc1nccs1 | 66 | 11 | . | 7 | 23 | 22 | 44
CC1CCN(CCCNC(=O)c2cc3c(Cl)nc4ccccc4c3s2)CC1 | -1.2 | 17 | 3105 | -10 | 20 | -1 | 15
COc1ccc(NC(=O)CNS(=O)(=O)c2cccs2)cc1 | 2.8 | -8 | 10118 | -25 | 7 | 2 | 0
O=C(O)C1Nc2ccc(C(F)(F)F)cc2C2OCCC12 (stereo not drawn) | 7.6 | 0 | 3868 | -13 | 21 | 7 | -2
COc1ccc(NC(=O)Nc2ccc3c(c2)C(=O)N(C(C)CO)CC(C)C(CN(C)C(=O)Nc2c(C)noc2C)O3)cc1 (stereo not drawn) | 5.3 | . | . | . | 6 | 4 | -8
Cc1ccc(C(=O)N2CCN(c3cccc(Cl)c3)CC2)cc1C | -0.2 | 0 | 9279 | 4 | 13 | 4 | -17
O=c1[nH]c(SCc2ccccc2)nc2c1cnn2-c1ccc(F)cc1 | 2.7 | 3 | 5727 | -11 | 3 | 1 | 6
COc1ccc(NC(=O)Cn2nnc(C(=O)Nc3ccccc3C)c2N)cc1 | -2.2 | 4 | 2648 | -12 | 11 | -3 | -7
Cc1c(NC(=O)C(C)OC(=O)c2cccc(S(=O)(=O)N(C)C)c2)c(=O)n(-c2ccccc2)n1C (stereo not drawn) | 4.7 | 1 | 2180 | -50 | 6 | 0 | 1
O=C(Cn1c(CO)nc2ccccc21)NCCc1ccccc1 | 1.0 | 2 | 4268 | -23 | 10 | 1 | 3
CCN1CNC(=S)N(C(C)c2ccccc2)C1 (stereo not drawn) | 4.5 | -16 | 7636 | -3 | -1 | -1 | 9
CCc1cccc(N(CC(=O)NC2CCCCC2)C(=O)c2csnn2)c1 | -2.3 | -9 | 3767 | -20 | -8 | 3 | 3
COc1ccc(-c2nc3c(c4nnc(SC(C)C(=O)Nc5ccc(C)cc5)n24)COC(C)(C)C3)cc1 (stereo not drawn) | 9.2 | 5 | 2439 | -11 | 6 | 3 | -13
COC(=O)CS(=O)(=O)c1ccsc1C(=O)Nc1ccc(F)c(F)c1 | 4.8 | -4 | 4551 | -6 | 7 | 1 | 2
COc1ccc(N=C2SC(CC(=O)Nc3ccccc3F)C(=O)N2Cc2ccco2)cc1 (stereo not drawn) | -0.9 | 8 | 2381 | -6 | 11 | 3 | 3
O=C1C2=C(SCCS2)C(=O)N1CCCO | . | 9 | 11155 | -10 | . | . | .
CCOC(=O)C1CCN(C(=O)c2cccc(S(=O)(=O)N(C)C3CCCCC3)c2)CC1 | -0.4 | 3 | 6343 | -11 | -6 | 15 | -3
CCCOc1c(OC)cccc1C1CC(=O)Nc2cc3c(cc21)OCO3 (stereo not drawn) | 6.6 | -8 | 2476 | -22 | . | . | -2
CCCCC(=O)Nc1c(O)c2ccccc2[nH]c1=O | 13 | 2 | 21304* | -14 | 0 | 0 | -5
O=C(CNS(=O)(=O)c1ccccc1)N1CCN(Cc2ccccc2)CC1 | 4.9 | 0 | 6569 | -19 | 5 | 5 | 7

Reprinted at random: 2 entries already listed, in no set order.
SMILES | Sa RN4220 lethal | BJeLR viability | Bead autofluor | PrP 5UTR inh | Mtb hypoxia inh | Mtb hypoxia inh growth | Sa ugtP lethal
COC(=O)C(NC(C)=O)(Nc1ccc(Br)cn1)C(F)(F)F (stereo not drawn) | 2.2 | -5 | 2737 | -9 | 5 | 4 | -6
CCc1cccc(N(CC(=O)NC2CCCCC2)C(=O)c2csnn2)c1 | -2.3 | -9 | 3767 | -20 | -8 | 3 | 3

Other records:
SMILES | Sa RN4220 lethal | BJeLR viability | Bead autofluor | PrP 5UTR inh | Mtb hypoxia inh | Mtb hypoxia inh growth | Sa ugtP lethal
O=C(O)c1cn(Cc2ccccc2)nc1-c1ccccc1 | 2.6 | -6 | 3930 | 14 | 11 | 4 | 8
COC(=O)CC/C(O)=C1/C(=N)CC(C)(C)CC1=O | -0.7 | 6 | 4386 | -10 | . | . | 2
COc1cc(C(=O)Nc2ccc3c(c2)CCCN3C(=O)c2ccco2)c([N+](=O)[O-])cc1OC | 2.3 | 14 | 6425 | -19 | 6 | 0 | 12
Cc1ccccc1CNC(=O)c1cc(COc2ccc(F)cc2F)on1 | -7.6 | 4 | 3147 | -2 | 12 | 14 | 17
C[C@@H]1C(=O)O[C@H]2[C@H](O)[C@@]34[C@H]5C[C@@H](C(C)(C)C)[C@]36[C@@H](OC(=O)[C@@H]6O)O[C@@]4(C(=O)O5)[C@@]12O | -0.2 | 2 | 3622 | -4 | 7 | 8 | 18
CNC(=O)CSc1nnc(-c2ccco2)n1-c1ccccc1 | 2.6 | -3 | 3330 | -12 | -7 | 9 | 3
O=C(NC1CCN(S(=O)(=O)c2ccc(F)cc2)CC1)c1cccc(F)c1 | 4.7 | -3 | 4278 | -9 | 19 | 7 | 11
CC(Oc1ccc(Br)cc1)C(=O)NCC(c1ccco1)N1CCCCC1 (stereo not drawn) | . | -4 | 6117 | -5 | . | . | .
CC(C)CC(C(=O)NC(=O)NCc1ccccc1)N1C(=O)c2ccccc2C1=O (stereo not drawn) | 2.7 | -3 | 2098 | -18 | . | . | 9
CC(C(=O)Nc1ccccc1C#N)N1C(=O)NC2(CCCCCC2)C1=O (stereo not drawn) | 0.6 | . | 5142 | -19 | 8 | -7 | 0
C/C=C/c1ccc(OCC(=O)Nc2ccc(C(N)=O)cc2)c(OC)c1 | 5.3 | 2 | 3633 | -21 | 4 | 1 | 2
Cc1ccc2cccc(NC(=S)NC(=O)c3c(Br)cnn3C)c2n1 | 1.7 | 2 | 4334 | -17 | -3 | -14 | -24
COc1ccc(OC)c(CNc2ncc(-c3cccc([N+](=O)[O-])c3)n2C)c1 | 2.5 | 1 | 4191 | -14 | -9 | 13 | -2
Cc1cc(C)c2c3c(sc2n1)C(c1cccc(F)c1)C(C#N)=C(N)O3 (stereo not drawn) | -4.4 | -8 | 15702 | -23 | 1 | 5 | 18
CCOC(=O)c1[nH]c2ccccc2c1NC(=O)c1ccco1 | 7.2 | 3 | 3586 | -19 | 10 | 14 | 3
COc1ccccc1OCc1nc2ccccc2n1C | 0.0 | 3 | 3574 | -30 | 14 | 8 | 14
CCCN1C(=O)C(O)(c2c(C)[nH]c3ccccc23)c2ccccc21 (stereo not drawn) | 5.7 | -4 | 3980 | -16 | 4 | 6 | 8
O=C(NN=Cc1ccc(OCC(=O)N2CCCC2)cc1)C(=O)NC1CC1 | 1.0 | . | . | . | -3 | -5 | 3
COc1cc(OC)cc(C(=O)NNC(=O)CCC2CCCC2)c1 | 1.5 | . | 4794 | -9 | -3 | -4 | 6
O=C(CC(c1ccccc1)c1ccco1)N1CCOCC1 (stereo not drawn) | -5.6 | -10 | 2968 | -36 | 11 | 14 | -2

Continued; it opens with the five that closed the last part.
SMILES | Sa RN4220 lethal | BJeLR viability | Bead autofluor | PrP 5UTR inh | Mtb hypoxia inh | Mtb hypoxia inh growth | Sa ugtP lethal
COc1ccccc1OCc1nc2ccccc2n1C | 0.0 | 3 | 3574 | -30 | 14 | 8 | 14
CCCN1C(=O)C(O)(c2c(C)[nH]c3ccccc23)c2ccccc21 (stereo not drawn) | 5.7 | -4 | 3980 | -16 | 4 | 6 | 8
O=C(NN=Cc1ccc(OCC(=O)N2CCCC2)cc1)C(=O)NC1CC1 | 1.0 | . | . | . | -3 | -5 | 3
COc1cc(OC)cc(C(=O)NNC(=O)CCC2CCCC2)c1 | 1.5 | . | 4794 | -9 | -3 | -4 | 6
O=C(CC(c1ccccc1)c1ccco1)N1CCOCC1 (stereo not drawn) | -5.6 | -10 | 2968 | -36 | 11 | 14 | -2
O=c1cc(O)c2ccccc2n1Cc1ccccc1 | 4.1 | -10 | 4220 | -19 | 1 | 4 | 5
O=C(O)c1cncc(SCc2ccccc2)n1 | 2.5 | 0 | 3668 | -17 | -7 | 0 | -1
O=C(CSc1nnc(NC(=O)Cc2ccc(F)cc2)s1)NCc1ccco1 | -0.2 | 0 | 3399 | -7 | -16 | -2 | 1
COc1ccc(NC(=O)C2CCN(S(=O)(=O)c3c(C)noc3C)CC2)cc1 | 2.2 | -9 | 5874 | -15 | 0 | -7 | -4
CC(NC(=O)c1ccc2c(c1)OCO2)C1CCCO1 (stereo not drawn) | -0.5 | 5 | 22158* | -34 | 6 | 6 | 2
COc1ccc(C(c2oc(CO)cc(=O)c2O)c2oc(CO)cc(=O)c2O)cc1 | 6.8 | -6 | 4157 | -32 | 11 | 1 | 4
COc1ccc(NC(=O)/C(C#N)=C\c2ccc(-c3cccc(C(=O)O)c3C)o2)cc1 | 4.1 | 6 | 3707 | -29 | 7 | 9 | 8
CCOc1ccccc1NS(=O)(=O)c1ccc2c(c1)n(C)c(=O)c(=O)n2C | -2.7 | -9 | 8916 | -22 | 0 | 11 | -2
CC(=NNC(=O)Nc1ccccc1)c1ccc2ccccc2c1 | 3.2 | . | . | . | 10 | 1 | 1
O=C(NNS(=O)(=O)c1ccccc1[N+](=O)[O-])c1cc2ccccc2cc1O | 10 | 12 | 5597 | -15 | 7 | 11 | 3
O=C(CCC(=O)OCC(=O)c1ccc(Br)cc1)NC1CCCCC1 | 4.3 | -1 | 4489 | 0 | . | . | 8
O=C(CN1CCC(NC(=O)Nc2ccccc2)CC1)Nc1cccc([N+](=O)[O-])c1 | 0.4 | -3 | 5659 | -21 | 13 | 9 | -2
CC(=O)OC(COc1c2ccoc2cc2oc(=O)ccc12)C(C)(C)O (stereo not drawn) | 9.6 | . | . | . | -14 | -6 | 5

Assay outcomes deposited in PubChem BioAssay by several laboratories.
